TRPML1 ag: qHTS for Agonists of the Human Mucolipin Transient Receptor Potential 1 (TRPML1) | Mucolipin-1 (Homo sapiens), Q9GZU1 | TRPML1-expressing cells, Ca2+ dye fluorescence, FDSS; host cell line not named in the record; reference of the full effect not given here | activation, % (test concentration not listed) | 410,000 tested, 0.12% active | AID 624414, 2012; in the data active = activation above about 50%; inconclusive = about 30% to 50%; inactive = below about 30%; also: 0% is about no effect; the text of the record puts the active cut at 80%
Target sequence (Q9GZU1 whole entry, looked up): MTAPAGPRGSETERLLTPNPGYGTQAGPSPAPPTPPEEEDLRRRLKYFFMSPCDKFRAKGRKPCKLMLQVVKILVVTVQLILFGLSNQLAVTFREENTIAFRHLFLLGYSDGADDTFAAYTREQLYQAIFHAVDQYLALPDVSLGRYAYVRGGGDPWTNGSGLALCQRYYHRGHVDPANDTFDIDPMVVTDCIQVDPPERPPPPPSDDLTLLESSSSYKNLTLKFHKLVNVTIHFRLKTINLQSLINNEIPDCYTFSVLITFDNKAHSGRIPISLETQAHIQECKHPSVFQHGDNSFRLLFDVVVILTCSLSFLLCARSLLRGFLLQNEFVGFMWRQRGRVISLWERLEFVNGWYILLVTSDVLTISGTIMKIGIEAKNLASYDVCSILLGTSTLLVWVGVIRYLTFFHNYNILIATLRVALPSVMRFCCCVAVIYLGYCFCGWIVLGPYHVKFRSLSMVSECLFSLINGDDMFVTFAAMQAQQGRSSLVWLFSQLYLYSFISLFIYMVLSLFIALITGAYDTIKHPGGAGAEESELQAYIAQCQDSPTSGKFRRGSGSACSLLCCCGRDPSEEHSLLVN
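Kinetic FDSS Ca2+ read in Tet-induced TRPML1-DL cells (ABD Ca8 dye plus quencher, 45-90 min RT loading): baseline, then compound, then 110 s agonist window; EC80 agonist 54-4 at 4uM final added afterwards for a 110 s antagonist window.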
gsp ag: qHTS for Agonist of gsp, the Etiologic Mutation Responsible for Fibrous Dysplasia/McCune-Albright Syndrome: qHTS. gsp mutant cells, cAMP HTRF, 30 min; control for the full effect not named in the record. Potency, µM (highest dose often 76.9 µM), inactives show at the top dose activation (cAMP increase), most hits filed as activators. 340,000 tested, 0.13% active; active = well fitted activation curve with a large enough effect; inconclusive = small, poorly fitted or top-dose-only effect, or another doubt; inactive = no such curve, though single readings can be large or run the other way; cell line not stated here;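 also: phosphodiesterase inhibitor Ro 20-1724 added with compounds to block cAMP breakdown; potency is read from the fitted curve at half-maximal effect; nearly all actives have a fitted effect of over 60% in size; about a fifth of the inactives were tested at one dose only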
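Cells stably selected in G418 were plated at 2000/well, grown 16-24 hr, then given compounds in DMSO with the PDE inhibitor […] (300 uM solution added) for 30 min at 37C; cAMP was read by HTRF.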
TRPML1 inh: qHTS for Inhibitors of the Human Mucolipin Transient Receptor Potential 1 (TRPML1) | TRPML1-inducible cells, Ca2+ dye fluorescence, FDSS; active compounds read low; inhibition of EC80 agonist-evoked calcium signal | activity change, negative = inhibition, % (no concentration beside the values) | Mucolipin-1 (Homo sapiens), Q9GZU1 | AID 624415, 2012 | 390,000 tested, 0.02% active; in the data active means activity change below about -50%; inconclusive means about -30% to -50%; inactive means above about -30%;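 also: stimulus is agonist 54-4 at its EC80 concentration; % is scaled to controls: 0 for no effect and ±100 for the full control effect; compound concentration not given in the record; the text of the record puts the active cut at -80%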
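Tet-induced TRPML1-DL cells loaded with Ca8 no-wash calcium dye were read kinetically on FDSS. Compound addition was followed by EC80 agonist 54-4 (4 uM final); inhibition was read over 110 s.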
Menin MLL FP FL: qHTS Assay for Inhibitors Targeting the Menin-MLL Interaction in MLL Related Leukemias: Competition With Fluorescein Labeled MLL-derived Peptide. AID 1766, 2009. Fluorescence polarization, fluorescein-MLL peptide displacement from menin. 290,000 tested, under 10 active. FP activity change, % at 61.4 µM; inconclusive = falling polarisation curve, or a change in total fluorescence; inactive = total fluorescence flat and polarisation flat or rising; no compound was filed as active; the % refers to the polarisation; negative = inhibition;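 also: % of control where 0% means no effect; inhibitors lower the polarisation; unlabelled MLL peptide was the positive control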
ClpP mod: qHTS Assay for Activators of ClpP; ATP-dependent Clp protease proteolytic subunit (Bacillus subtilis (strain 168)), P80244; purified B. subtilis ClpP, FRET peptide cleavage, 20 min; Potency, µM (highest dose often 57.5 µM), without a hit: top-dose activity change, negative = active; 340,000 tested, 1.9% active; AID 651965, 2013; active = well fitted falling curve with a large enough effect; inconclusive = small, poorly fitted or top-dose-only effect; inactive = no such curve, though single readings can be large or run the other way; also: potency is read from the fitted curve at half-maximal effect; the source files actives as falling curves though it sought activators and does not explain the sign; nearly all actives have a fitted effect of over 65% in size; many hits overshoot -100%
Target sequence (P80244 whole entry, looked up): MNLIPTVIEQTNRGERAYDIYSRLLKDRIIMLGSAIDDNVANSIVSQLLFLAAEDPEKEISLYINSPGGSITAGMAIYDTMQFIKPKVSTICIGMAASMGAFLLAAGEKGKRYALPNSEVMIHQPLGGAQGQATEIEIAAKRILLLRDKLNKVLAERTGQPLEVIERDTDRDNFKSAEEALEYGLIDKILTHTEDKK
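ClpP 10 microg/mL final, pH 8 Tris/KCl buffer with BSA, glycerol, Tween-20; compound pinned in; FRET-FV substrate; RT 20 min; Ex320/Em430; ΔFRET vs ADEP 5.8 microM, DMSO, no enzyme.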
gsp antagonist: qHTS for Antagonists of gsp, the Etiologic Mutation Responsible for Fibrous Dysplasia/McCune-Albright Syndrome: qHTS; gsp-mutant cells, cAMP HTRF, 30 min; control for the full effect not named in the record; Potency, µM (series often up to 76.9 µM), without a hit: at the top dose activity change, negative = inhibition, most hits filed as inhibitors; 340,000 tested, 0.4% active; AID 624288, 2012; active = falling curve of any shape with a large fitted effect; inconclusive = falling curve, mostly with a smaller effect; inactive = flat or rising curve; cell line not stated here;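 also: intracellular cAMP measured with PDE inhibitor Ro 20-1724 present during compound exposure; potency is read from the fitted curve at half-maximal effect; % is scaled to controls: 0 for no effect and ±100 for the full control effect; nearly all actives have a fitted effect of over 65% in size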
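Cells in G418 medium, seeded 16-24 h, 37C; buffer exchange to DPBS + 1 mM CaCl2, 0.5 mM MgCl2, 0.05% BSA; cpds in DMSO + […] (300 uM stock), 30 min 37C; HTRF cAMP detection.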
Active calls of the source: *; ? = inconclusive; nt = no result given; & = joins results of further samples; [ ] = dose if it differs, or a comment. Rows are unselected; 2.1% or so of the library scored in one or more.

SMILES	TRPML1 ag	gsp ag	TRPML1 inh	Menin MLL FP FL	ClpP mod	gsp antagonist
O=c1c2nnn(Cc3ccc(Cl)cc3)c2ncn1Cc1ccc(F)cc1	1.8	-24%	14	-0.8	-0.9%	-6%
COc1ccc(CCNC(=O)CSc2nnc3ccc(-c4ccccn4)nn23)cc1OC	-1.0	16%[15.4 µM]	6	nt	nt	-3%
O=C(Nc1ccc(/C=C/c2nc3ccccc3o2)cc1)c1cccc(C(F)(F)F)c1	0.2	18%	19	1.9	16µM*	-8%
Nc1nonc1OCCOCCOCCOc1nonc1N	-1.0	-6%[15.4 µM]	0	-2.6	0.3%	17%
COc1ccc(CN2CC(C(=O)NCCCN3CCOCC3)CC2=O)cc1 (centres undefined)	0.4	-8%	-7	2.6	1.1%	5%
COc1cccc(/C=C2\CCC(C3CCCC3)C2=O)c1OC (centres undefined)	1.6	12%[15.4 µM]	2	5.3	nt	-4%
COc1cc2c(cc1OC)CN(c1ccc3ccccc3n1)CC2	1.3	3%[15.4 µM]	14	-0.6	nt	?
O=C(Nc1ccc2nc(SCC(=O)N3CCCc4ccccc43)sc2c1)c1ccccc1	1.8	nt	0	nt	14µM*	nt
CC(C)N1C(=O)C2(OCCCO2)c2cc(Br)ccc21	1.1	10%	-7	5.3	-4.2%	4%
O=C(c1cc(COc2cccc3cnccc23)on1)N1CCCC(CCCO)C1 (centres undefined)	0.2	11%	0	-0.3	3.4%	35µM*
Cc1ccc(C)c(OCC(=O)O/N=C(\N)c2cccnc2)c1	1.5	5%	14	4.6	nt	-1%
Cc1ccc(NC(=S)N2CCN(C(=O)c3ccccc3)CC2)c(C)c1	0.0	-18%	5	0.1	0.6%	8%
O=C(O)c1cccc(Nc2nc3ccccc3nc2NS(=O)(=O)c2ccccc2)c1	-0.1	12%[15.4 µM]	-1	nt	0.0%	5%
CCc1cc2c(=O)c(Oc3ccccc3F)c(C)oc2c(CN(C)C)c1O	0.1	?	-24	3.4	?	9%
O=C(Cc1ccc(F)cc1)N1CCC(c2nc3c(nnn3Cc3ccc(F)cc3)c(=O)[nH]2)CC1	0.2	nt	-14	nt	0.9%	nt
CC(NC(=O)COC(=O)c1ccc2c(c1)OCCO2)c1ccccc1 (centres undefined)	0.3	3%[15.4 µM]	9	nt	-2.8%	5%
COc1ccc(OCC(=O)NNC(=O)C2CCC2)cc1	1.8	9%	-9	nt	1.1%	6%
CC1CCN(C(=O)COC(=O)c2ccc(N3CCCC3=O)cc2)CC1	4.0	17%	-13	nt	0.8%	10%
Cc1cc(C)cc(NC(=O)CCc2c(C)nc3c4cccnc4nn3c2C)c1	0.4	nt	25	nt	3.9%	nt
C[C@@H]1CN([C@@H](C)CO)S(=O)(=O)c2ccc(Br)cc2O[C@@H]1CN(C)C(=O)c1ccncc1	0.5	?	20	nt	0.9%	nt
CC(C)(C)c1ccc(Oc2ccc(NC(=O)C3CC=CCC3C(=O)O)cc2)cc1 (centres undefined)	-0.3	?	13	1.7	nt	-12%
Cn1c(=O)c2c(SCC(=O)NCc3ccc(F)cc3)nc(-c3ccccc3Cl)nc2n(C)c1=O	1.1	nt	-18	nt	-1.0%	nt
O=C(O)/C=C/C(=O)Nc1ccc(S(=O)(=O)Nc2nccs2)cc1	-0.7	nt	0	-1.8&-3.6	1.2%	-4%
COc1ccc(C(=O)NCc2nnc(SCC(=O)N3CCCCCC3)o2)cc1OC	0.9	-4%	5	nt	1.7%	6%
COc1ccc(C(CCNCc2ccccc2F)c2ccc(F)cc2)cc1 (centres undefined)	-0.3	-5%	29	3.7	0.4%	?
Cc1ccc(C(=O)N/N=C\c2cccnc2)s1	0.1	20%	17	nt	-2.3%	-7%
COc1ccc(CCN2CC(C(=O)N(C)C3CCOCC3)CCC2=O)cc1 (centres undefined)	-1.4	5%	9	4.3	0.2%	15%
CCCCn1c(SCC(=O)c2ccccc2)nc2c(sc3ccccc32)c1=O	0.6	nt	18	nt	-5.3%	nt
O=C(O)Cc1ccc2ocnc2c1	0.2	6%	-1	4.4	-15%	9%
COc1ccc(N2CCN(C(=O)c3ccccc3)CC2)c([N+](=O)[O-])c1	-0.9	8%[15.4 µM]	-13	5.8	nt	-63%
CCCC(=O)Nc1nnc(/C=C/c2ccccc2)s1	-0.1	9%	-22	-5.2	3.8%	1%
Cc1cccc(OCc2nnc(SCC(=O)Nc3sc(C)c(C)c3C#N)n2C)c1	0.8	10%	-9	6.9	1.5%	17%
CC12CCC(C(=O)CC1=O)C2(C)C (centres undefined)	0.2	-56%[inhibitor]	-7	nt	1.5%	-4%
O=C(Nc1cccc(S(=O)(=O)N2CCCCCC2)c1)C1CC(=O)N(c2ccc3c(c2)OCCO3)C1 (centres undefined)	-0.4	10%	19	nt	-1.4%	-10%
COc1ccc(S(=O)(=O)NC(C)C(=O)Nc2ccccc2C(F)(F)F)cc1 (centres undefined)	0.9	11%	-7	1.5	0.1%	-6%
OC1(c2ccccc2Cl)NN=C2CCCCCN21 (centres undefined)	-0.1	20%[15.4 µM]	-24	-0.4	nt	21%
COc1cccc(-n2c(=O)c3cc(OC)c(OC)cc3n(CC(=O)Nc3cc(C)[nH]n3)c2=O)c1	-0.5	27%	16	5.7	28µM*	21%
COc1ccc(CN2CC(C(=O)NCc3ccc4c(c3)OCO4)CC2=O)cc1 (centres undefined)	0.9	-2%	1	2.9	0.0%	-13%
COCCNC(=O)CSc1ccccc1C(=O)NCC1CCCCC1	-0.1	?	-12	0.3	nt	-8%
CC(C)NS(=O)(=O)c1ccc(CCC(=O)N2CCOCC2)cc1	0.1	24%	6	-1.3	-0.3%	8%
O=C(Cn1c(=O)c(C(F)(F)F)nc2ccccc21)Nc1cccc(Br)c1	0.7	nt	14	nt	-4.7%	nt
Cc1cc(O)ccc1N/C=C/c1onc(C)c1[N+](=O)[O-]	1.2	-15%[15.4 µM]	-1	4.0	nt	4%
COc1ccc(N(C)S(=O)(=O)c2cccc(C(=O)NCC(c3ccco3)N3CCCC3)c2)cc1 (centres undefined)	0.5	-41%[inhibitor]	21	nt	0.6%	-14%
CCc1ccc(NC(=O)CCCc2nc(-c3ccco3)no2)cc1	2.1	nt	-7	nt	-2.5%	nt
CCCCCC(=O)NCC(C)NC(=O)CCCCC (centres undefined)	-0.1	-13%	-5	0.0	-14%	-13%
CCn1c(SCC(=O)Nc2ccc3c(c2)OCCO3)nnc1-c1cccnc1	-0.6	-8%[15.4 µM]	6	-4.7	-0.9%	-7%
Cc1ccsc1C1Nc2ccccc2C(=O)N1O (centres undefined)	-0.5	13%	20	5.2	-1.7%	-1%
COC(=O)c1c(SCC(=O)Nc2cccc(Cl)c2C)[nH]c2ccccc2c1=O	-0.3	nt	-8	nt	-2.6%	nt
O=C(O)c1ccc(N2C(=O)/C(=C/c3ccc(-c4ccc([N+](=O)[O-])cc4)o3)C=C2c2ccccc2)cc1	3.7	8%	-6	24	nt	?
C[C@H](CO)N1C[C@H](C)[C@@H](CN(C)Cc2ccccc2)Oc2c(NC(=O)Cc3ccccc3)cccc2C1=O	-1.1	-27%	4	nt	0.6%	?
C#CCn1c2ccccc2c2nc3ccccc3nc21	-1.2	-14%[15.4 µM]	14	-4.5	-0.8%	-2%
CCOc1ccc(C(C(=O)NCCOC)N(CCOC)C(=O)CCC(=O)Nc2ccccn2)cc1 (centres undefined)	0.2	-2%	-8	-5.0	nt	9%
CCN(CC)C(=O)c1[nH]cnc1C(=O)N[C@@H](C)c1ccccc1	0.0	nt	-21	nt	3.8%	8%
CCOc1ccc(CCNC(=O)c2cc(C)nn2-c2ccccc2)cc1	1.7	4%[15.4 µM]	-3	4.9	nt	-4%
COC(=O)C1=C(C)N(C)C(=O)NC1c1cc2c(cc1Br)OCO2 (centres undefined)	0.2	-62%[inhibitor]	2	-5.1	-0.3%	9%
CCN1CCN(C(c2ccc(C)cc2)c2sc3nc(-c4ccco4)nn3c2O)CC1 (centres undefined)	4.7	nt	1	nt	-2.3%	nt
CCCCc1ccc(S(=O)(=O)NNC(=S)NCc2ccco2)cc1	-0.5	0%	8	3.1	-3.7%	-20%
CCNC(=O)CSc1nnc(-c2cc(-c3ccc(Cl)cc3)nc3ccccc23)o1	-1.0	-4%[15.4 µM]	15	-1.5	-1.3%	-8%
CN(C)c1cc2c3ccccc3n(C)c2cc1N	-0.3	-9%[15.4 µM]	-1	nt	2.0%	-9%
CCO/C(C)=N/n1c2nc3ccccc3nc2c2c(=O)n(Cc3ccccc3Cl)c(C)nc21	-1.2	-1%	5	4.0	-5.1%	17%
Carrying on.
SMILES	TRPML1 ag	gsp ag	TRPML1 inh	Menin MLL FP FL	ClpP mod	gsp antagonist
CC(C)C1N(C(=O)N(C)C)CCN1S(=O)(=O)c1ccccc1 (centres undefined)	-0.6	-1%[15.4 µM]	11	nt	nt	9%
Cc1nn2c(-c3cccc(NC(=O)c4ccccc4)c3)nnc2c2ccccc12	0.4	nt	6	nt	?	nt
CC(C)N1CCC(=NNc2ccc(S(=O)(=O)N3CCOCC3)cc2[N+](=O)[O-])CC1	-0.2	-40%[inhibitor]	3	0.3	0.2%	-13%
COc1ccccc1C(CNC(=O)c1cccc(S(=O)(=O)N2CCCc3ccccc32)c1)N(C)C (centres undefined)	1.5	?	3	nt	-13%	2%
CCC(=O)NC(=S)Nc1ccc(S(=O)(=O)N2CCN(C)CC2)cc1	0.1	?	?	-0.2	-5.1%	8%
C[C@]12CCC(=O)C[C@@H]1CC[C@@H]1[C@@H]2CC[C@]2(C)C=CC[C@@H]12	-0.5	nt	1	1.5&0.8	-0.5%	-4%
O=C(Nc1cccc(S(=O)(=O)NC2=NCCC2)c1)c1cc(=O)[nH]c2ccccc12	0.4	-23%	-3	nt	-10%	14%
CC(C)(C)c1ccccc1OCC(=O)Nc1ncn[nH]1	-0.9	13%	10	-1.5	4.1%	1%
CC(O)CNC(=O)C1CCN(Cc2ccc(OCc3ccccc3)cc2)CC1 (centres undefined)	0.8	?	8	-0.2	1.0%	11%

Arranged by value in Menin MLL FP FL (low to high): three from the list above
SMILES	Menin MLL FP FL
CC(C)(C)c1ccccc1OCC(=O)Nc1ncn[nH]1	-1.5
O=C(O)Cc1ccc2ocnc2c1	4.4
Cc1cccc(OCc2nnc(SCC(=O)Nc3sc(C)c(C)c3C#N)n2C)c1	6.9

Bioassay records: PubChem BioAssay, National Center for Advancing Translational Sciences (NCATS)
